# H5N1 antiviral – MDCK cell protection from H5N1 avian flu; 0.07% of 96,000 active; inhibition, % at 50 µM; cytopathic effect, luminescence, 72 h; hits give high values; no value below 0 was filed and about half of the inactive calls have no number; reference of the scale not given here; in the data active = inhibition above about 25%
# Active calls of the source: *; i = inactive. Only part of the results is shown; count on the stated rates, not on these rows.
SMILES	H5N1 antiviral
COc1cc2c3c(c1)-c1c(sn(-c4cc(OC)ccc4OC)c1=S)C(C)(C)N3C(=O)C2=O	1.2
O=C(O)c1ccc(NC(=O)C2CC=CCC2C(=O)O)cc1 (stereo unspecified)	0.5
C=C(C)C1CC=C(C)/C(=N/NC(=O)c2ccc(NC(=O)CCC)cc2)C1 (stereo unspecified)	i
C=C(C)Cn1c(N2CCCC2)nc2c1c(=O)[nH]c(=O)n2C	0.2
CC(=O)Nc1cc(C(=O)N2CCCC2)ccc1S(=O)(=O)c1ccc(C)cc1	0.8
COc1ccc2c(c1)CCc1sc(NC(=O)c3ccc(C)cc3)nc1-2	i
COC1=C(OC)c2ccccc2C(C(=O)O)N/C1=C(/C)Nc1ccncc1 (stereo unspecified)	i
O=C(NCc1ccccn1)C1CC(c2ccc(Cl)c(Cl)c2)=NO1 (stereo unspecified)	0.3
O=C(NS(=O)(=O)c1ccc(NC(=O)C2CCCO2)cc1)c1ccccc1 (stereo unspecified)	i
CCOc1ccc(C(C)=O)cc1N1C(=O)C2C3C=CC(O3)C2C1=O (stereo unspecified)	0.8
CC(=O)c1c(C)[nH]c(C(=O)CSc2nnc(C3CCCCC3)n2N)c1C	i
COc1ccc(C/C(N)=N/OC(=O)Cc2ccccc2)cc1	i

# In the list so far, 5 contain sulfur.
SMILES	H5N1 antiviral
COc1cc2c3c(c1)-c1c(sn(-c4cc(OC)ccc4OC)c1=S)C(C)(C)N3C(=O)C2=O	1.2
CC(=O)Nc1cc(C(=O)N2CCCC2)ccc1S(=O)(=O)c1ccc(C)cc1	0.8
COc1ccc2c(c1)CCc1sc(NC(=O)c3ccc(C)cc3)nc1-2	i
O=C(NS(=O)(=O)c1ccc(NC(=O)C2CCCO2)cc1)c1ccccc1 (stereo unspecified)	i
CC(=O)c1c(C)[nH]c(C(=O)CSc2nnc(C3CCCCC3)n2N)c1C	i

# Continued.
SMILES	H5N1 antiviral
CC(=O)c1cccc(NC(=O)N2CCCC2C(=O)Nc2cccc(C)c2C)c1 (stereo unspecified)	i
Cc1ccc(C(=O)CSc2nnc(-c3ccc4[nH]c(C)c(C)c4c3)o2)cc1C	0.2
CCOC(=O)Cc1ccc(NC(=O)c2ccc(C(C)(C)C)cc2)cc1	i
CCc1nn(CC(=O)NCCCN2CCCC2=O)c(=O)c2cc3sccc3n12	1.7
O=C(Cc1cccs1)N(Cc1cccs1)C1(C(=O)NC2CCCC2)CCCCC1	i
Cc1nc2ccccc2c(=O)n1-c1cccc(O)c1	i
COCCCN1C(=O)C(O)=C(C(=O)c2ccco2)C1c1cccc(Br)c1 (stereo unspecified)	i
COC(=O)Nc1ncc(CN2C(=O)c3ccccc3C2=O)s1	1.5
COc1ccc(N(C(=O)c2ccc(Cl)cc2)C2=CC3CCC(C2)N3C)cc1 (stereo unspecified)	i
CCCc1nnc(NC(=O)CCC(=O)NCc2ccccc2OC)s1	i
COC(=O)c1ccc(N2C(=O)CC(N3CCC(n4c(=O)[nH]c5ccccc54)CC3)C2=O)cc1 (stereo unspecified)	i
Cc1ccc2nc(NCCO)nc(-c3ccccc3)c2c1	0.4

# (next part)
SMILES	H5N1 antiviral
COc1ccc(C(=O)CSc2nnc(-c3ccoc3C)n2CC2CCCO2)cc1 (stereo unspecified)	1.3
Nc1nnnn1CC(=O)OCc1cccc(Br)c1	i
Cc1cccc(OCC(=O)N(Cc2cccs2)C2CCS(=O)(=O)C2)c1 (stereo unspecified)	0.1
CCCCNC(=O)c1onc(CSc2ccccc2C)c1C(=O)O	i
CCc1ccc(OCC(=O)NCc2ccco2)c(Br)c1	i
COCCNC(=O)CN1CCN(Cc2cccc(Cl)c2)C1=O	2.2
COC(=O)Cc1cc(=O)[nH]c(Nc2nc3ccccc3o2)n1	i
Cc1cc(NC(=O)CSc2nnc3c(C)cc4c(C)ccc(C)c4n23)no1	i
COc1ccc2nc(C)cc(SCC(=O)N/N=C/c3cccc4ccccc34)c2c1	0.2
COc1ccc(NC(=O)c2ccc(Cl)c(S(=O)(=O)N3CCc4ccccc4C3)c2)cn1	1.1
COc1ccc(C(=O)Nc2ccccc2C(=O)NCCCn2ccnc2)cc1	i
CC1=C(C(=O)OCC2CCCO2)C(c2cccc(C(F)(F)F)c2)C2=C(CC(c3ccco3)CC2=O)N1 (stereo unspecified)	i

# (listing goes on)
SMILES	H5N1 antiviral
COC(=O)CCC(=O)NNC(=O)CCCOc1ccc(Cl)cc1Cl	i
Oc1ccc(Cl)cc1CNc1ccc(Br)cn1	2.2
CCCCn1c(=O)[nH]c(=O)c2c1ncn2Cc1ccco1	4.1
O=C(Nc1nc(=S)ss1)c1c(F)cccc1F	0.8
O=C(O)c1cccc(S(=O)(=O)Nc2ccc3oc(=O)sc3c2)c1	i
Cc1cccc(NC(=O)c2sc3nc4c(c(-c5cccs5)c3c2N)CN(C)CC4)c1	i
CCOc1ccc(NCc2nnc(SCc3ccccc3Cl)n2-c2ccccc2)cc1	4.3
Cc1nc2c(c(=O)n1CCC1=CCCCC1)c1nc3ccccc3nc1n2/N=C/c1ccco1	i
C=CCn1c(SC(C)C(=O)NC2(C#N)CCCCC2)nnc1-c1ccc(OC)cc1 (stereo unspecified)	0.1
CCc1nc(N)c(C#N)c(-c2ccc(O)c(OC)c2)c1C	0.2
Cc1ccc(C(=O)/C=C/c2ccc(-c3ccccc3[N+](=O)[O-])o2)cc1	2.2
COCCNC(=O)c1ccc2c(=O)n(Cc3ccco3)c(SCC(=O)NC3CCCCC3)nc2c1	0.4

# (list continues)
SMILES	H5N1 antiviral
COc1ccc(CCNC2CC(C)N(C)CC2C)cc1OC (stereo unspecified)	1.6
CC1(C)CC(=O)N(CC(=O)NCc2ccc(F)cc2)c2ccccc2S1(=O)=O	1.3
COc1ccc(C)cc1NC(=O)CN1C(=O)c2cccc3cccc1c23	1.6
COc1ccc(C(=O)NC(=O)COC(=O)C2COc3ccccc3O2)cc1 (stereo unspecified)	i
Cc1ccc(CNc2cnccn2)cc1	i
C=CCc1ccccc1OCC(O)CN(CC)CC (stereo unspecified)	0.4
COc1cc(OC)cc(C(=O)NCCNC(=O)c2ccccc2)c1	0.6
Cc1ccc(NC(=O)c2ccc(-c3nn(C)c(=O)c4ccccc34)cc2)c(C)c1	i
CC(=O)Cc1nsc(NC(=O)c2cc(-c3cccc(C(F)(F)F)c3)oc2C)n1	i
CCOC(=O)C1CCN(c2nnc(N3CCCC3=O)s2)CC1	2.4
COCCNS(=O)(=O)c1cc(-c2nn(C)c(=O)c3ccccc23)ccc1C	i
c1ccc(-c2ccc3c(c2)c2c4n3CCN=C4CCC2)cc1	i

# (cont.)
SMILES	H5N1 antiviral
Cc1ccc(-c2nc3ccccc3c(=O)n2-c2ncccc2C)cc1	4.0
CCNC(=O)C1CCCN1S(=O)(=O)c1ccc(OC)cc1 (stereo unspecified)	0.6
CC1CCCN(c2ccc(C(=O)NCC3CCCO3)cn2)C1 (stereo unspecified)	0.4
O=C(Cn1ccc2ccccc2c1=O)NCCC(=O)Nc1cccnc1	0.8
CCN1C(=Nc2ccc(Cl)cc2)SC/C1=C\C(=O)OC	0.4
COc1ccccc1Cn1c(=S)[nH]c2cc(C(=O)NCCN3CCOCC3)ccc2c1=O	0.7
Cc1ccc2cc3c(NC(=O)C(C)C)nn(C)c3nc2c1	i
COc1ccc(C2OC(=O)CC2C(=O)N2CCN(c3cc(Cl)ccc3C)CC2)cc1OC (stereo unspecified)	0.3
CC(C)(C)CC(=O)N1CCC(c2nc3c(nnn3Cc3c(F)cccc3Cl)c(=O)[nH]2)CC1	1.0
O=S1(=O)NC2CCCCCN2c2ccc(F)cc21 (stereo unspecified)	2.0
CCCc1nnc(NC(=O)c2ccncc2)s1	i
C[N+](C)(C)C/C=C1/COCO1	1.0

# Next part
SMILES	H5N1 antiviral
c1ccc(C2NCCn3cccc32)cc1 (stereo unspecified)	0.9
CC(C)(C)NS(=O)(=O)c1ccc(NC(=O)C(Sc2ccccc2)c2ccccc2)cc1 (stereo unspecified)	7.7
COc1ccc(CCNS(=O)(=O)c2ccc3c(c2)n(C)c(=O)c(=O)n3C)cc1OC	1.2
O=C(Nc1ccc2c(c1)OCO2)C1(S(=O)(=O)c2ccc(Cl)cc2)CC1	i
O=C(c1ccc(Cn2c(=O)[nH]c3ccccc3c2=O)cc1)N1CCN(c2ccccc2)CC1	0.7
COc1c(C)cccc1C(=O)NC(=S)Nc1ccc2c(c1)Cc1ccccc1-2	i
O=C(COC(=O)c1ccc(NS(=O)(=O)c2ccc3c(c2)OCCO3)cc1)NC1CC1	0.7
CCc1c(C)sc(NC(=O)c2cc(C)no2)c1C#N	i
Cc1ccc(C(=O)Nc2cc3c(cc2Cl)OCCCO3)cc1	2.0
COc1ccccc1NC(=O)NC(N)=O	0.5
CN(C1CCCCC1)S(=O)(=O)c1ccc2c(c1)c(=O)c(C(=O)N1CCc3ccccc3C1)cn2C	i
CSc1nc2cc(F)c(F)cc2n1C	i

# More records:
SMILES	H5N1 antiviral
CCOC(=O)c1oc2nc(C(C)C)c3c(c2c1N)CC(C)(C)OC3	i
N#Cc1c(N)oc(-c2ccc3c(c2)OCO3)c1-c1ccc2c(c1)OCO2	i
Cn1c(SCc2ccccc2)nnc1-c1cnccn1	0.2
CC(=O)Nc1ccc(S(=O)(=O)N2CCSC2c2ccccc2)cc1 (stereo unspecified)	0.7
COc1ccc(S(=O)(=O)NCCSC(C)(C)C)c(Cl)c1Cl	1.7
CC(C)C(=O)Nc1ccc(NC(=O)c2cc3ccccc3o2)cc1	1.5
O=C(CC1COc2ccccc2O1)NC1CCCCC1 (stereo unspecified)	i
CC(C)Cc1cc(C(=O)NCc2cccnc2)no1	0.7
CC1CCCCC1NC(=O)Cn1nnc(-c2ccc(Cl)cc2)n1 (stereo unspecified)	i
O=C(COc1ccc(S(=O)(=O)N2CCOCC2)cc1)N1CCN(Cc2ccc3c(c2)OCO3)CC1	i
Cc1nn(-c2ccccc2)c2c1C(c1c(C)[nH]c(C#N)c1C)C(C#N)=C(N)O2 (stereo unspecified)	i
CCC1Oc2ccc(C)cc2N(Cc2cccc(C)c2)C1=O (stereo unspecified)	i

# Exported field by field: entries from further up
> CC(=O)Nc1ccc(S(=O)(=O)N2CCSC2c2ccccc2)cc1 (stereo unspecified)
  H5N1 antiviral: 0.7
> COc1ccc(S(=O)(=O)NCCSC(C)(C)C)c(Cl)c1Cl
  H5N1 antiviral: 1.7

# Next part.
molecule,H5N1 antiviral
Cc1cc(-c2ccccc2C(=O)O)on1,0.3
COCCN1Cc2cccc(C(=O)Nc3cccnc3)c2C1=O,2.3
CCn1c(Cn2nnc(-c3ccccc3)n2)nnc1SCC(=O)N1CCOCC1,i
CCOC(=O)c1c(NC(=O)CC)sc(C(=O)N2CCCCC2)c1C,i
COc1ccc(CCC(=O)Nc2ccc3c(c2)OCCO3)cc1,i
N#CCC(=O)N1CCCCCC1,i
CN(C(=O)COc1ccccc1)c1nnc(-c2ccncc2)s1,0.7
CCOC(=O)C(=CNc1ccc(C)cc1C)C(=O)OCC,i
CN1CCN(C(=O)c2cc3ccccc3oc2=O)CC1,0.1
CC1(C)Cc2c(c(-c3ccccc3)nc(N3CCCC3)c2C(N)=O)CO1,0.2
C=CCn1c(CSc2nc3ccccc3s2)nnc1SCC(=O)NCc1ccco1,i
COc1cccc(C(CC(=O)Nc2cccc3ccccc23)NC(=O)c2ccccc2)c1 (stereo unspecified),0.5
CCn1c(COc2ccc(C(C)C)cc2)nnc1SCC(=O)Nc1nccs1,i
COC(=O)c1cc(NC2c3ccccc3C(=O)N2c2cccnc2)cc(C(=O)OC)c1 (stereo unspecified),2.1
C=CCn1c(SCC(=O)O)nnc1-c1cccc(Cl)c1,i
Cc1cc(NC(=O)Cn2cnc3c(cnn3C(C)(C)C)c2=O)no1,0.1
Cc1nc2ccccc2c(=O)n1N,i
CCOC(=O)C1CCN(C(=O)c2cccnc2)CC1,1.4
Cc1cc(=O)oc(C)c1C(=O)N[C@@H]1CCCCNC1=O,i
O=C(O)c1ccc2c3c(ncnc13)-c1ccccc1C2=O,i

# Retrieved by compound from above:
molecule,H5N1 antiviral
C=CCn1c(CSc2nc3ccccc3s2)nnc1SCC(=O)NCc1ccco1,i
CCn1c(Cn2nnc(-c3ccccc3)n2)nnc1SCC(=O)N1CCOCC1,i
CN1CCN(C(=O)c2cc3ccccc3oc2=O)CC1,0.1
C=CCn1c(SCC(=O)O)nnc1-c1cccc(Cl)c1,i

# Continued.
molecule,H5N1 antiviral
O=c1oc2c(CN3CCOCC3)c(O)c(Cl)cc2c2c1CCC2,2.4
CCn1c(CSc2nc3ccccc3s2)nnc1SCC(=O)OC(C)(C)C,1.9
Cn1c(COc2ccccc2)nnc1SCC(=O)Nc1ccc2c(c1)OCO2,i
COc1cccc(NC(=O)C2CCN(S(C)(=O)=O)CC2)c1,0.1
O=C(NCCC1=CCCCC1)NC1CCCCC1,0.1
Cc1ccc(S(=O)(=O)NC(=O)c2cc(C)n(-c3cc(S(=O)(=O)N4CCOCC4)ccc3N3CCCC3)c2C)cc1,1.4
O=C(CCc1ccccc1)Nc1ccc(NC(=O)c2ccco2)nc1,i
CCCCCn1c(SCC(=O)OCC)nc2cc(C(=O)N3CCC(C(N)=O)CC3)ccc2c1=O,1.1
CCN(CC)S(=O)(=O)c1ccc2c(c1)nc(SC(C)C(N)=O)n2-c1ccc(OC)cc1 (stereo unspecified),0.8
Cc1ccc2nc3c(cc2c1)CN(Cc1ccco1)C(=NCC1CCCO1)S3 (stereo unspecified),1.8
O=C(Cc1ccccc1)NCCS(=O)c1ccc(Cl)cc1 (stereo unspecified),0.1
COc1ccc(NC(=O)C2CCCN(S(=O)(=O)c3c(C)n[nH]c3C)C2)cc1 (stereo unspecified),i
OCCN(Cc1ccccc1)CC1CC2C=CC1C2 (stereo unspecified),i
O=S(=O)(Cc1ccccc1Cl)Nc1ccccn1,0.1
Cc1ccc2c(C(=O)CN3CCOCC3)c(C)[nH]c2c1,1.1
Cc1cccc(NC(=O)c2ccccc2Br)n1,i
COc1cc2c(cc1OC)CN(CC(=O)Nc1ccc3c(c1)OCO3)CC2,i
Cc1cc(Br)ccc1NC(=O)CCN1C(=O)c2ccncc2C1=O,0.1
CC(Sc1nc(N)cc(=O)[nH]1)C(=O)NC1CCCCC1 (stereo unspecified),i
C=C1N(c2ccc(Cl)cc2)C(=O)OC1(C)C,i
Cc1nnc(SCC(=O)N2CCOCC2)n1C,0.2
